From PubChem BioAssay
Ba CapD inh = blocks the Bacillus anthracis CapD enzyme; hit rate 0.23% among 140,000; AID 492967; z-score (test concentration not listed); purified CapD enzyme, fluorescence intensity read-out; stronger effect = lower value; some hits fall short of the stated cut;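 active = z-score under -4 in either of two replicates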;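 also: stock transfer was 100 nL into about 40 µL; score is relative to mean and spread of the plate; one replicate is shown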
AID504770 = E. coli YBA685 growth inhibition, screen for V. cholerae RctB inhibitors | E. coli YBA685 rctB-dependent plasmid, OD600 growth, 3 h; stronger effect = lower value | z-score (concentration not given with the values) | hit rate 0.27% among 130,000;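 active = z-score under -2 on both plates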;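 also: wells of about 30 µL received 100 nL stock; score is relative to mean and SD of the test wells; the first replicate is given; strong numbers were not always called active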
* hit, by the source's call; . = not tested or not shown; & = joins results of further samples. These rows are one share of the data; count on the stated rates, not on these rows.

SMILES	Ba CapD inh	AID504770
O=C(CN1C(=O)c2ccccc2C1=O)Nc1nnc(-c2ccc3c(c2)OCCO3)o1	.	0.05
COC(=O)c1ccccc1O	-0.11	-0.4
CCn1ccc(C(=O)Nc2ccccc2C(=O)OC)n1	8.5	-0.1
CC(Cc1cccc(C(F)(F)F)c1)NCCOC(=O)c1ccccc1 (centres undefined)	1.1&-0.02	-0.15
CCCOc1ccc(C(=O)OCCN(CC)CC)cc1N	-2	.
CN[C@@H]1[C@H](O)[C@H](NC)[C@H]2O[C@@]3(O)C(=O)C[C@@H](C)O[C@H]3O[C@@H]2[C@H]1O	-1.3&1.8	1
O=C(NC1CCN(CCc2c[nH]c3ccccc23)CC1)c1ccccc1	1.1	0.65
N=c1nc(N2CCCCC2)cc(N)n1O	-0.73&-0.14	0.4
Cc1scc2c1N(C(=O)CN1CCN(C)CC1)c1ccccc1NC2=O	0.01	-0.15
COCCNC(=O)c1ccc2c(c1)nc(C)n2-c1ccc(Br)cc1	0.78	-0.35
CCCOc1ccc2nc(NC(=O)OC)[nH]c2c1	-1.7	1.3
COc1ccc(C(=O)c2ccccc2)c(O)c1	-0.55&1.6	0.15
Cc1ccc(Nc2nc(N)nc(CN3CCC(C(N)=O)CC3)n2)cc1	.	-0.9
Cc1ccccc1OCC(O)CO (centres undefined)	0.37&-0.2	-0.5
Nc1c2ccccc2nc2ccccc12	.	-0.6

The final six entries of the part above are carried over, then new ones follow:
SMILES	Ba CapD inh	AID504770
COCCNC(=O)c1ccc2c(c1)nc(C)n2-c1ccc(Br)cc1	0.78	-0.35
CCCOc1ccc2nc(NC(=O)OC)[nH]c2c1	-1.7	1.3
COc1ccc(C(=O)c2ccccc2)c(O)c1	-0.55&1.6	0.15
Cc1ccc(Nc2nc(N)nc(CN3CCC(C(N)=O)CC3)n2)cc1	.	-0.9
Cc1ccccc1OCC(O)CO (centres undefined)	0.37&-0.2	-0.5
Nc1c2ccccc2nc2ccccc12	.	-0.6
CC(C)n1c(SCC(=O)Nc2ccccc2)nc2ccccc2c1=O	.	0.75
O=C(CCN1CCN(CCO)CC1)N1c2ccccc2Sc2ccc(C(F)(F)F)cc21	9.5	.
CCc1cccc(CC)c1NC(=O)CN(CC(=O)O)CC(=O)O	-0.01	.
CC(C)NNC(=O)c1ccncc1	3.1&3	-0.1
CN(CC1COc2ccccc2O1)c1ccc(S(=O)(=O)N2CCOCC2)cn1 (centres undefined)	.	0.1
O=C(O)c1cc(=O)c2ccccc2o1	-0.55	0.45
CCN(CCCCOC(=O)c1ccc(OC)c(OC)c1)C(C)Cc1ccc(OC)cc1 (centres undefined)	84&-1.1	-0.15
CC1O[C@@H](O[C@@H]2C(CO)O[C@@H](OCC3O[C@@H](OC(=O)C45CC[C@@H](C)[C@H](C)[C@H]4C4=CC[C@@H]6[C@@]7(C)C[C@@H](O)[C@H](O)[C@@](C)(CO)C7CC[C@@]6(C)[C@]4(C)CC5)C(O)[C@H](O)[C@@H]3O)C(O)[C@@H]2O)C(O)[C@@H](O)[C@H]1O (some centres undefined)	-1.1	.
COC(=O)N/N=C/c1c[n+]([O-])c2ccccc2[n+]1[O-]	.	-3.7*
CCCCOc1cc(C(=O)OCCN(CC)CC)ccc1N	-0.65	.
CCCCC(=O)O[C@]1(C(=O)CO)[C@@H](C)CC2C3CCC4=CC(=O)C=C[C@]4(C)[C@@]3(F)C(O)C[C@@]21C (some centres undefined)	.	0.3
O=C(O)C1Cc2ccccc2CN1 (centres undefined)	0.33	-0.15
Cc1cc(=O)oc2cc(O)ccc12	97&-0.02	.
CC(=O)Oc1ccc2c(C)cc(=O)oc2c1	19	-0.25
C[C@@H]1C[C@H]2[C@@H]3CCC4=CC(=O)C=C[C@]4(C)[C@@]3(Cl)[C@@H](O)C[C@]2(C)[C@@]1(OC(=O)c1ccco1)C(=O)CCl	-0.46	.

Random excerpt: three entries already listed.
SMILES	Ba CapD inh	AID504770
C[C@@H]1C[C@H]2[C@@H]3CCC4=CC(=O)C=C[C@]4(C)[C@@]3(Cl)[C@@H](O)C[C@]2(C)[C@@]1(OC(=O)c1ccco1)C(=O)CCl	-0.46	.
CN(CC1COc2ccccc2O1)c1ccc(S(=O)(=O)N2CCOCC2)cn1 (centres undefined)	.	0.1
COCCNC(=O)c1ccc2c(c1)nc(C)n2-c1ccc(Br)cc1	0.78	-0.35

Entries of single compounds as entered above.
Results for CC(C)n1c(SCC(=O)Nc2ccccc2)nc2ccccc2c1=O = Ba CapD inh = .; AID504770 = 0.75
Results for O=C(NC1CCN(CCc2c[nH]c3ccccc23)CC1)c1ccccc1 = Ba CapD inh = 1.1; AID504770 = 0.65
Results for COc1ccc(C(=O)c2ccccc2)c(O)c1 = Ba CapD inh = -0.55&1.6; AID504770 = 0.15

The list goes on.
SMILES	Ba CapD inh	AID504770
CC(C)(C)NCC(O)COc1cccc2c1CC(O)C(O)C2 (centres undefined)	0.83	0.5
c1ccc(-n2cnnn2)cc1	.	2.3
CCn1c(C(=O)N2CCCC(C(=O)N3CCc4ccccc4C3)C2)cc2sccc21 (centres undefined)	-0.2	0.2
CC(=O)OCC(=O)[C@@]1(O)CC[C@H]2[C@@H]3CCC4=CC(=O)C=C[C@]4(C)[C@@]3(F)[C@@H](O)C[C@@]21C	1	.
CC(=O)N[C@@H](Cc1ccccc1)C(=O)O	6.2	.
OCC1CN(Cc2ccccc2)C(c2ccccc2)O1 (centres undefined)	-0.76	0.3
CCCCN(CCCC)CCCOC(=O)c1ccc(N)cc1	-0.15&-0.17	-0.85
O=C1c2c(O)ccc(O)c2C(=O)c2c(NCCNCCO)ccc(NCCNCCO)c21	-0.035&-0.32	1.4
CC(C)(C)NCC(O)COc1cccc2c1C[C@H](O)[C@H](O)C2 (some centres undefined)	0.38&0.12	0.8
COc1cc(C2Oc3cc(C4Oc5cc(O)cc(O)c5C(=O)C4O)ccc3OC2CO)ccc1O (centres undefined)	-0.45	-0.8
CCn1cc(C(=O)O)c(=O)c2cc(F)c(N3CCNC(C)C3)c(F)c21 (centres undefined)	0.47&-1.3	-3.6*
CC[C@]12CCCN3CCc4c(n(c5ccccc45)[C@](O)(C(=O)OC)C1)[C@@H]32	15&-0.73	0.55

Compounds listed so far containing an NH in an aromatic ring:
SMILES	Ba CapD inh	AID504770
O=C(NC1CCN(CCc2c[nH]c3ccccc23)CC1)c1ccccc1	1.1	0.65
CCCOc1ccc2nc(NC(=O)OC)[nH]c2c1	-1.7	1.3
